ALR H2O2 inh: inhibitors of human ALR sulfhydryl oxidase, primary screen, biochemical, H2O2 detection, HRP-luminol luminescence, single point; FAD-linked sulfhydryl oxidase ALR (Homo sapiens), P55789; purified ALR, DTT oxidation; inhibition, % (test concentration not listed); 290,000 tested, 3.8% active;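 active = mean and each replicate at 75% or more; inconclusive = only one of the two met; inactive = neither met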;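 also: stock transfer was 7.5 nL into about 7.5 µL; 0% = neutral wells and 100% = wells with inactivated enzyme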
Target sequence (P55789 whole entry, looked up): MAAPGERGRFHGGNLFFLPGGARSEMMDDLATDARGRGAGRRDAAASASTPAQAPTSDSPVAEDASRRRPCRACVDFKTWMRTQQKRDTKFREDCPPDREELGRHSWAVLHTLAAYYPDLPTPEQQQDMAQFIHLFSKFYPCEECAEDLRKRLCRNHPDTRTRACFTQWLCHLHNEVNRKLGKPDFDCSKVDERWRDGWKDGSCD
Calb FLC: C. albicans growth inhibition with fluconazole, primary screen, CaCi-2 strain, Alamar Blue fluorescence; growth inhibition, % (concentration not given with the values); C. albicans CaCi-2 (fluconazole-resistant clinical isolate) + fluconazole, 48 h; 300,000 tested, 0.57% active;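 active = most replicates above 75%; inconclusive = exactly half above 75%; inactive = most below 75%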;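 also: all wells also contain fluconazole at 8 µg/ml as a sub-toxic cotreatment; 0% = median of DMSO wells and 100% = median of geldanamycin control wells; wells of about 8 µL received 7.5 nL stock; the first replicate is given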
FGF22 binding: binders of human FGF22 protein, primary screen, FGF22 synaptogenesis inhibitor project, biophysical, thermal shift, single point; Fibroblast growth factor 22 (Homo sapiens), Q9HCT0; recombinant FGF22 thermal shift, SYPRO orange fluorescence; percent of sucrose octasulfate shift, DMSO zero; calls only at 9.99 µM; 340,000 tested, 1.5% active; AID 651658, 2012;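 active = melting point raised past a set limit in the mean and every replicate; inconclusive = no clear call; three in four hits are not shown here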
Target sequence (Q9HCT0 whole entry, looked up): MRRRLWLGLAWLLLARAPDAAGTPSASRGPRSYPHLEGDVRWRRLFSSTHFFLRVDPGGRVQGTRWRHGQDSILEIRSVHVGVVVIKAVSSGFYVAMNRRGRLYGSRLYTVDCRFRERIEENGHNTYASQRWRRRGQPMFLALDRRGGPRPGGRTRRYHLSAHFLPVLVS
T cruzi inh: inhibitors of intracellular T. cruzi growth, primary screen, luminescence, NIH3T3 host cells. T. cruzi beta-gal in NIH3T3, 90 h. inhibition, % (test concentration not listed). 300,000 tested, 1.4% active. AID 1885, 2009;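 active = mean inhibition across valid replicates above about 55%, limit read from the data; inconclusive = mean below that limit but half or more replicates reach it; inactive = mean below it, under half of replicates reach it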;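 also: signal also drops with host cell toxicity which is not excluded here; 0% = plate median of DMSO wells and 100% = zero luminescence signal; higher percent means less beta-gal luminescence so fewer parasites; stock transfer was 50 nL into about 50 µL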
MLL AF4-AF9 inh: inhibitors of AF4 peptide binding to AF9, primary screen, biochemical, AlphaScreen, biotin-AF4 peptide, FLAG-AF9, single point. inhibition, % at 10 µM. Protein AF-9 (Homo sapiens), P42568. AID 651704, 2012. 350,000 tested, 0.47% active;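 active = every replicate reaching a set inhibition limit, whatever the replicate mean, cut at about 25% in these data; inconclusive = mean inhibition reaches that limit but some replicates miss it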;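 also: 0% = plate neutral control median and 100% = total signal loss; the record names both 10 and 1 µM as test concentration; the first replicate is given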
Target sequence (P42568 whole entry, looked up): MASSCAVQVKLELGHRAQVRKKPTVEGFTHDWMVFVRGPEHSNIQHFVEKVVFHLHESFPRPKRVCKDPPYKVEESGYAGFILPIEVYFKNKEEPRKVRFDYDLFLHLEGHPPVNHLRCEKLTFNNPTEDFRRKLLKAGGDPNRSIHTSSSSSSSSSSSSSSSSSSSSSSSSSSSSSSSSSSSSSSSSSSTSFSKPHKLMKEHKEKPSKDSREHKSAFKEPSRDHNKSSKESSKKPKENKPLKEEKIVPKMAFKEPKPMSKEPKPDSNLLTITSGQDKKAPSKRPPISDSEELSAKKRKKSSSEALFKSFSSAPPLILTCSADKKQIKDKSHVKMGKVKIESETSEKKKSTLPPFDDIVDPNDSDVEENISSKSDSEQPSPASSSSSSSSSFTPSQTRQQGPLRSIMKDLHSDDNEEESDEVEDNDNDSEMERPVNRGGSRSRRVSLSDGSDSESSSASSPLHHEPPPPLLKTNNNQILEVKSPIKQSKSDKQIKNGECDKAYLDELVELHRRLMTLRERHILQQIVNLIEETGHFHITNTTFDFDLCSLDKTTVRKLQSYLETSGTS
rRNA inh HTS: reduced GFP signal of wild-type E. coli, primary screen, bacterial rRNA inhibitor project, GFP/RFP fluorescence, OD600, single point | 350,000 tested, 1.6% active | GFP signal change (wild-type ribosome), % (test concentration not listed) | AID 720706, 2013 | E. coli WT GFP vs humanized-ribosome RFP mutants, 24 h; hits give low values; DMSO median 0, no signal -100;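 active = significant combined selectivity score with lowered wild-type GFP, culture density cut under 30%, mutant RFP and density less affected; inactive = any of these conditions unmet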; also: one replicate is shown; some compounds called inactive have numbers as strong as hits
RanGTP-Imp inh: inhibitors of RanGTP-importin-beta interaction, primary screen, biochemical, FRET, CFP-Ran, YFP-importin-beta, homogeneous | Ran GTPase (GTP-bound) - importin-beta complex | cell-free CFP-Ran/YFP-importin-beta FRET ratio | inhibition, % (no concentration beside the values) | 300,000 tested, 1.1% active | AID 2216, 2009;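 active = most replicates above 15%; inconclusive = exactly half above 15%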;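 also: 0% = DMSO wells and 100% = Ran loaded with GDP instead of GTP; wells of about 40 µL received 100 nL stock; the first replicate is given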
Beta apoptosis: inhibitors of cytokine-induced beta cell apoptosis, primary screen, luminescence; 300,000 tested, 0.8% active; protection from apoptosis, % (no concentration beside the values); INS-1E cytokine-induced death, ATP luminescence, 48 h; percent of positive-control rescue, neutral wells zero;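 active = all replicates at 75% or more, or half of them and the mean; inconclusive = half reach 75% but not the mean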;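 also: 0% = cytokine-treated negative control wells and 100% = positive control rescue; higher means more ATP so stronger rescue from cytokine killing; wells of about 40 µL received 100 nL stock; the first replicate is given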
rRNA inh HTS OD600: also measured in rRNA inh HTS; calls as there; OD600 change, %; measured here: OD600 growth;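 optical density of the mix in the first replicate; 0 = DMSO median and -100 = no signal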
rRNA inh HTS RFP: recorded beside rRNA inh HTS, whose call it bears; RFP signal change, %; measured here: RFP humanized mutant strains;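 first replicate; 0 = DMSO median and -100 = no signal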
Numbers without * were called inactive; i = inactive; ? = inconclusive; . = no result given. Only part of the results is shown; count on the stated rates, not on these rows.

SMILES	ALR H2O2 inh	Calb FLC	FGF22 binding	T cruzi inh	MLL AF4-AF9 inh	rRNA inh HTS	rRNA inh HTS OD600	rRNA inh HTS RFP	RanGTP-Imp inh	Beta apoptosis
COc1ccc(NC(=O)CCC(=O)Nc2cc(OC)c(NC(=O)c3ccco3)cc2OC)c(OC)c1	-7	4	i	-7	-3.2	6	8	7.8	-0.7	-3
COc1cccc(-n2cc3c(=O)n(C)c(=O)n(C)c3c2)c1	-10	-6	.	5	.	.	.	.	4.0	-8
Cc1cccc(CNC(=O)C(C)n2nc(C)c3c(C)n(-c4ccccc4)nc3c2=O)c1 (centres undefined)	-1	-1	i	11	-7.6	10	1	-0.7	3.5	1
CN1C2C=C(N(CCc3ccccc3)C(=O)c3ccc(Cl)cc3)CC1CC2 (centres undefined)	-21	-9	i	5	0.3	11	10	0.0	-3.1	-3
CCN(CC(=O)NC1CCS(=O)(=O)C1)c1ccc([N+](=O)[O-])cc1C#N (centres undefined)	29	.	i	.	3.0	-3	0	-0.8	.	3
Cc1ccc(S(=O)(=O)N(C)c2ccc(C(=O)O)cc2)cc1	-17	-11	.	-6	.	.	.	.	-4.0	-13
Cc1ccc(Sc2ccc(NC(=O)c3ccc(S(C)(=O)=O)cc3Cl)cc2)cc1	-6	22	.	-11	.	.	.	.	-3.0	0
Cc1cc(C(=O)Nc2cccc3ncccc23)no1	-49	25	.	-10	.	.	.	.	-1.1	-3
Cc1ccc(NC(=O)CN(C)C(=O)C(c2ccccc2)c2ccccc2)cc1	.	.	i	.	-1.6	-32	-42	-5.9	.	-2
CC(=O)Oc1ccc2ccccc2c1C(NC(=O)Cc1ccccc1)c1ccc(Cl)cc1 (centres undefined)	.	?	.	20	.	.	.	.	2.8	-4
Cc1cccnc1NC(=O)C1CCN(S(=O)(=O)c2c(C)noc2/C=C/c2ccco2)CC1	.	-13	.	8	.	.	.	.	-0.5	2
Cc1ccc([C@H]2C(C(=O)O)=CC[C@@H](c3ccc(C)cc3)N2S(=O)(=O)c2ccc(C)cc2)cc1	12	.	i	.	-0.7	-15	-35	-3.8	.	-7
COc1ccc(C(=O)C2CCCN(S(=O)(=O)c3ccc(C(C)=O)cc3)C2)c(C)c1 (centres undefined)	-7	-4	i	-29	-1.5	-18	-17	-5.0	0.8	23
CCOC(=O)Cc1csc(NC(=O)c2ccc(Br)cc2)n1	-10	-2	i	-22	0.0	-31	-26	-2.2	2.1	.
CCOC(=O)c1cn[nH]c1NC(=S)Nc1ccccc1	17	-9	i	-4	.	-8	2	1.6	1.3	-4
Cc1cc(NC(=O)CSc2ccccn2)no1	-9	-15	i	-3	1.1	16	17	-0.1	-2.3	-7
Cc1[nH]n(-c2ccccc2)c(=O)c1C=Nc1ccc(S(=O)(=O)NC(N)=O)cc1	1	-7	i	-9	5.0	10	2	-0.2	0.7	-1
COc1ccc(S(=O)(=O)NC(CC(=O)NCc2ccco2)c2ccco2)cc1 (centres undefined)	-3	-4	.	2	.	.	.	.	0.9	-4
Cc1cccc(/C=C/c2onc(C)c2S(=O)(=O)N2CCC(C(=O)NC(C)(C)C)CC2)c1	-5	-10	i	9	7.8	3	6	-0.4	-1.3	5
COc1ccc(CNc2ccccc2)cc1Br	83*	16	.	-3	.	.	.	.	4.6	9
CCc1cc(C(=O)NNC(=S)Nc2cccc(C)c2)cs1	38	?	.	-2	.	.	.	.	1.8	-1
CCOC(=O)c1ccc(NC(=O)c2nc[nH]c2C(=O)NCC(=O)OC(C)(C)C)cc1	2	8	.	-11	.	.	.	.	-4.4	4
COC(=O)c1ccc(C2C(Oc3ccc(OC)cc3)C(=O)N2CCc2ccc(F)cc2)cc1 (centres undefined)	-7	10	.	11	.	.	.	.	5.8	-1
COC(=O)CCC(=O)OC1(C)C(=O)C2=CN(CCc3c[nH]c4ccccc34)C(c3ccc(OC)cc3)=CC2=C(Br)C1=O (centres undefined)	-6	8	.	1	.	.	.	.	-0.1	-2
Cc1ccc(-n2c(=S)[nH]c3sc4c(c3c2=O)CCC4)cc1	24	37	i	-21	-1.6	-43	-58	-8.6	3.5	-1
Cc1ccc(NC(=O)CCCNC(=O)c2ccc(Cl)cc2)c(O)c1	-2	-2	i	-34	-0.3	-9	-7	-3.6	2.8	3
COc1cc2cc(C(C)(C)O)oc(=O)c2cc1OC	-1	.	i	.	-4.6	5	11	4.6	.	-8
CC(C)(C)c1ccc(C(=O)NNC(=O)CCc2ccccc2)cc1	-11	-4	i	1	-0.4	-4	-11	0.9	-2.3	.
Cn1c2ccccc2c(=O)c2cc(C#CC3(O)CCCCC3)ccc21	0	12	i	5	-1.8	5	5	-8.7	169*	9
CCOC(=O)c1cc(-c2nnc(-c3ccc(Oc4ccccc4)cc3)o2)c(C)nc1C	-6	9	i	-1	-0.9	-1	3	1.0	?	15
N#Cc1ccc(C(=O)Nc2ccc3ccccc3c2)cc1	-3	5	i	9	1.2	3	2	3.2	?	3
CCn1c(-c2c(Cl)c(C)nn2C)n[nH]c1=S	49	-16	.	-5	.	.	.	.	3.4	1
Cc1cc(NCc2ccccn2)n2nc(C)c(-c3ccccc3)c2n1	1	5	i	.	.	-47*	5.7*	-15*	-3.3	42
O=C(Nc1nc2cc3c(cc2s1)OCCO3)c1ccco1	5	0	i	-7	0.2	.	.	.	-1.6	35
CCN(CCO)Cc1csc2ccc(Cl)cc12	0	-11	.	-4	.	.	.	.	1.4	-7
CCOc1ccccc1CN1CCNC(=O)C1CC(=O)NCc1cc(C)n(C)n1 (centres undefined)	-12	-26	i	-10	-0.9	3	12	1.8	-3.2	-3
O=C(COC(=O)c1cccnc1Cl)c1cccc(Cl)c1	29	24	.	-11	.	.	.	.	-9.4	-13
CNc1nc(OCCNC(=O)Nc2ccccc2)nc(N2CCOCC2)n1	-2	17	.	-5	.	.	.	.	?	-2
O=C(O)c1cnc(-c2ccccc2)nc1Sc1cccc(Cl)c1	96*	63	.	-1	.	.	.	.	-0.9	0
Cc1ccc(CNC(=O)COC(=O)c2ccc(Br)cc2)cc1	-9	?	.	-15	.	.	.	.	-1.2	-3
CC1CN(C(=O)c2cc3cc(Cl)ccc3[nH]2)CC(C)O1 (centres undefined)	-6	5	i	-2	3.9	-7	-2	-1.9	-0.6	-1
Cc1nc(NCCc2ccccc2F)c(C#N)c(C)c1[N+](=O)[O-]	-4	12	.	11	.	.	.	.	6.6	6
CCN(C(=O)COC(=O)c1c(NC(C)=O)sc(C)c1C)C1CCS(=O)(=O)C1 (centres undefined)	.	-12	.	11	.	.	.	.	?	3
CCCc1cc(=O)oc2cc(C)cc(OC(C)C(=O)NCc3ccncc3)c12 (centres undefined)	-22	5	i	4	-3.5	2	7	4.7	1.0	-3
Cc1ccc(NC(=O)CN(C)C(=O)CCCN2C(=O)c3ccccc3C2=O)cc1	.	10	.	-10	.	.	.	.	1.2	2
Clc1ccc(/C=N/NC(=Nc2ccccc2)c2ccccn2)c(Cl)c1	7	?	.	28	.	.	.	.	-1.6	10
O=C(Nc1ccccc1Cl)N1CCSc2ccccc21	.	-7	i	9	1.9	-1	-1	-1.2	-4.2	-4
CCCC(CCC)C(=O)Oc1cc(C)[nH]c(=O)c1[N+](=O)[O-]	-14	-7	i	5	-0.6	6	6	-0.6	2.1	-9
COc1ccc(CNc2ccc(C)c(C)c2)c(OC)c1OC	66	-2	i	14	12	-20*	-15*	-0.2*	2.3	0
O=C(CN1CCOc2ccccc21)NCc1ccc(F)cc1	98*	1	i	-18	4.5	0	3	0.5	-1.1	1
C=CCC(C(=O)c1ccccc1)[N+](C)(C)CC=C (centres undefined)	-4	-12	i	-14	-2.7	14	7	-9.2	1.7	-1
COCCCNC(=O)CC1C[C@H](C(=O)N2CCCCC2)[C@@]2(CCc3ccccc3)c3[nH]c4ccccc4c3CCN2C1=O (some centres undefined)	-4	.	i	.	-2.9	9	8	2.6	.	-4
CCC1(c2ccc(C)cc2)NC(=O)N(CC(=O)Nc2cccc(S(=O)(=O)N3CCCC3)c2)C1=O (centres undefined)	.	.	i	.	-0.7	-7	-13	15	.	-3
Cc1cc(C)n(C2CC(=O)N(c3ccccc3)C2=O)n1 (centres undefined)	-13	13	.	-3	.	3	1	-1.8	2.4	-3
CC/C(=N/NC(=O)CCC(=O)Nc1ccccc1OC)c1ccccc1	0	25	.	-18	.	.	.	.	0.8	-12
CCOC(=O)N1CCN(c2ncnc3c2cnn3-c2ccc(Cl)cc2)CC1	.	20	i	-10	1.2	5	-8	-3.0	1.2	.

More records
SMILES	ALR H2O2 inh	Calb FLC	FGF22 binding	T cruzi inh	MLL AF4-AF9 inh	rRNA inh HTS	rRNA inh HTS OD600	rRNA inh HTS RFP	RanGTP-Imp inh	Beta apoptosis
CC(C)CN1CCC(=O)N(CCSc2ccc(Br)cc2)CC1	.	1	i	8	3.6	-12	-10	-5.9	3.7	-11
CCOc1ccc(C(=O)NCC(=O)N2CCN(C/C=C/c3ccccc3)CC2)cc1OCC	-6	-6	i	4	-3.3	-4	-2	1.9	.	2
COc1cc(C(=O)OCC(=O)c2cc(C)n(CC3CCCO3)c2C)ccc1OCC(=O)N1CCOCC1 (centres undefined)	.	3	i	-8	-18	3	-1	-8.6	1.8	-3
Cc1cc(Br)ccc1NC(=O)CN(C)C(=O)CN1C(=O)NC2(CCCC2)C1=O	-8	-5	i	-4	3.7	5	12	-0.9	-3.7	-1
O=C(NCc1ccco1)C(c1ccncc1)N(CCC1=CCCCC1)C(=O)Cn1nnc2ccccc21 (centres undefined)	4	-3	.	31	.	.	.	.	-0.7	-4
Cc1ccc(NC(=O)COC(=O)CCc2ccc(S(=O)(=O)N3CCOCC3)cc2)cc1C	-2	1	i	-8	0.0	-15	-8	-3.9	?	-3
Cc1cccc(COc2ccc(/C(O)=C3\C(=O)C(=O)N(CCN(C)C)C3c3ccncc3)cc2)c1 (centres undefined)	.	7	.	-5	.	.	.	.	0.7	-1
COC(=O)c1[nH]c2cccc(OC)c2c1NC(=O)C(C)N1CCC(C)CC1 (centres undefined)	-1	-5	.	-26	.	.	.	.	-2.0	0
COC(=O)CN(c1nc(C)c(Cl)c(OC)n1)S(=O)(=O)c1ccc(C)cc1	-3	1	.	27	.	.	.	.	4.7	-4

High-throughput results from PubChem.
